YopH PTP inh: YopH tyrosine phosphatase inhibitors, primary screen, biochemical, fluorescence Ex485/Em525; inhibition, %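 (about 10 µM by stock and volumes)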; 140,000 compounds, 0.16% hits; AID 898, 2007; YopH tyrosine phosphatase [Yersinia enterocolitica];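 active = inhibition of 50% or more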;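 note: controls were vehicle for no effect and minimum signal wells for full effect; inactives centre near -20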
Mtb growth: M. tuberculosis H37Rv growth inhibitors, H37Rv strain (AID 1626) | 220,000 compounds, 0.95% hits | M. tuberculosis H37Rv growth inhibition; higher % means a stronger effect | one-dose inhibition, % at 10 µM; IC50 in µM for titrated hits;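 active = confirmed in a dose series; inconclusive = inhibition above 80% but not taken into the dose series; inactive = below 80% or under 30% at every dose of the series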;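 note: bacteria incubated seven days before Alamar blue readout; 0% = bacteria only wells and 100% = bacteria with antibiotic wells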
Arbovirus anti: antivirals against arbovirus infection, primary screen, cell-based, full library, 10K replicate subset; 200,000 compounds, 0.37% hits; arbovirus infection cell-based antiviral screen; inhibition, % at 10 µM; AID 1251, 2008;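 active = inhibition from about 30%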;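 note: bluetongue infection of BSR cells; cell survival read as ATP light after 72 h; 0% = infected wells without compound and 100% = uninfected wells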
Mtb bLac sens: beta-lactam sensitization of Mtb H37Rv, H37Rv; inhibition, % at 25 µM; AID 434955, 2010; M. tuberculosis H37Rv growth with meropenem, percent inhibition; hits of this screen are not shown here; 330,000 compounds, 0.27% hits;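 active = about 74% or more and at least 40 points above the plate without the antibiotic, then above 30% in a dose series; inconclusive = first-round hits that could not be retested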;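 note: growth measured after seven days incubation then overnight dye step; 0% = bacteria only wells and 100% = bacteria with antibiotic; twin plates without the antibiotic show which effects depend on it; some results filed as inactive read as strong as hits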
RecA splice inh: Mtb RecA intein splicing inhibitors, primary screen, biochemical, fluorescence, HTS. Protein RecA (Mycobacterium tuberculosis (strain ATCC 25618 / H37Rv)), P9WHJ3. cell-free RecA intein splicing. inhibition, %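 (about 9 µM by stock and volumes)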. 290,000 compounds, 0.75% hits. AID 2221, 2009; in the data active = inhibition above about 30%; inconclusive = no clear call, values can overlap the other calls;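 note: 0% = vehicle wells and 100% = reference inhibitor control wells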
Target sequence (P9WHJ3 whole entry, looked up, canonical isoform): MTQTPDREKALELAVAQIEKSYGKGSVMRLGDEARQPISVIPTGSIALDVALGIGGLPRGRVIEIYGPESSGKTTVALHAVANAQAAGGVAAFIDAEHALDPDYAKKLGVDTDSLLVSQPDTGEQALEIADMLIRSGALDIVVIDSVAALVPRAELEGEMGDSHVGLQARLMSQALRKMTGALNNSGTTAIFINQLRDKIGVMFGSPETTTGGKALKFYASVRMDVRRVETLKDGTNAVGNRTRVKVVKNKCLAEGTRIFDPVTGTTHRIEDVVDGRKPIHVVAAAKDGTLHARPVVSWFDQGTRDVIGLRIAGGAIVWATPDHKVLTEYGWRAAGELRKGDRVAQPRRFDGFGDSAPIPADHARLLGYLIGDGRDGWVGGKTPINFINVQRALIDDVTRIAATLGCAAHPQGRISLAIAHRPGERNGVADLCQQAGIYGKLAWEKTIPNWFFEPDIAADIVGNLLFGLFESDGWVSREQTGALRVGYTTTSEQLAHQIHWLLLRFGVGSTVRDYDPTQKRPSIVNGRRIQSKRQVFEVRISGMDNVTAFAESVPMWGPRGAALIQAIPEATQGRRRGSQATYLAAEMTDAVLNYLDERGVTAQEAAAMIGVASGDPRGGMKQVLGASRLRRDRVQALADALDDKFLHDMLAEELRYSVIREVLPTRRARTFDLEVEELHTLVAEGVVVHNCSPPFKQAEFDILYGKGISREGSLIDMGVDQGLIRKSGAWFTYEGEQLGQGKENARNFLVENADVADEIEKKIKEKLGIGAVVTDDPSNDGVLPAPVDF
Arbovirus anti repeat: further read-out of Arbovirus anti, marked with its call; inhibition, %; measured here: 10K subset replicate screen; many hits read low in the repeat;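 first of two repeat runs on a subset; 0% = infected and 100% = uninfected wells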
An asterisk follows results filed as active; ? = inconclusive; · = no result given.

SMILES	YopH PTP inh	Mtb growth	Arbovirus anti	Mtb bLac sens	RecA splice inh	others
COC(=O)COc1cc(OCC(=O)OC)c2c(-c3ccccc3)cc(=O)oc2c1	·	·	·	0.4	-0.1
COc1ccc(Oc2coc3c(CN(C)C)c(O)ccc3c2=O)cc1	13.1	6.9%	5.3	0.5	-3.2	Arbovirus anti repeat=-4.9
Cc1csc(NC(=O)Cc2c[nH]c3ccccc23)n1	-10.4	0.5%	-2.1	5.7	1.7
CC(=O)NC(=S)Nc1cccc2ccc(C)nc12	·	0.4%	·	1.1	2.7
Cn1nnc(NC(=O)COc2ccc(C3CCCCC3)cc2)n1	8.6	·	14.4	99.2	-1.6
COc1c(C)cccc1C(=O)Nc1cc(Cl)ccc1N1CCOCC1	-65.9	8.3%	-1.4	0.3	-0.1
CC(C)(C)C(=O)Nc1ccccc1N1CCN(c2ccc(F)cc2)CC1	·	·	·	1.7	1.1
Cc1c(NC(=O)C(C)Oc2ccc(Br)cc2Cl)c(=O)n(-c2ccccc2)n1C (centres undefined)	·	·	·	-10.2	-12.2
CC1CCc2c(sc3nc(C4CC4)nc(N4CCN(C(=O)c5ccco5)CC4)c23)C1 (centres undefined)	0.3	?	·	90.6	29.3
COc1ccc(CNC(=O)c2ccc(C(C)(C)C)cc2)cc1	·	-1.3%	-3.5	-2.0	-0.1
O=C(Cn1c(=O)n(Cc2ccccc2)c(=O)c2ccccc21)NCc1ccco1	-18.2	1.6%	8.1	-7.1	·
CCNC(=O)NC(=O)C(C)OC(=O)c1cc(S(=O)(=O)N2CCCCCC2)ccc1OC (centres undefined)	-19.1	-2.6%	-3.3	-2.3	2.3
COc1ccc(/C=C2\N=C(c3ccccc3Cl)NC2=O)cc1	·	5.1%	·	·	0.5
CCn1nc(C)c(CNC(=O)Nc2ccccc2C(=O)OC)c1C	·	-1.7%	-7.0	1.6	-1.6
COC(=O)c1cccc(C(=O)N2CCC(CO)(Cc3ccccc3Cl)CC2)c1	·	10.6%	-0.4	0.4	2.3
Cc1c(CCC(=O)NCCCn2ccnc2)c(=O)oc2cc3oc4c(c3cc12)CCCC4	·	·	·	65.0	3.5
C/C(=N\Nc1ccc(Cl)cc1)c1c(O)cc(C)oc1=O	·	?	-35.4	17.2	-3.5
CC(=O)N1CCN(S(=O)(=O)c2ccc(C)c([N+](=O)[O-])c2)C1C(C)C (centres undefined)	·	5.5%	18.1	-0.6	-2.2
O=C(NC1C2CCCC1CN(C1CC1)C2)c1ccc(Cl)cc1 (centres undefined)	·	·	·	6.4	1.3
COC(=O)c1ccc(CO/N=C(\NC(C)=O)c2nonc2NC(C)=O)cc1	-24.6	-3.3%	-8.7	3.0	3.2
CC1CC(C)(C)NC(=S)N1CCC(=O)Nc1ccc2c(c1)OCCO2 (centres undefined)	·	1.8%	2.8	-18.4	·
CCC[C@@H]1CCCO[C@@](C(=O)NCc2cc(C)n(C)n2)(C(F)(F)F)C1	·	0.2%	·	-2.1	-0.6
Cc1ccc2c(c1)N(C(=O)CCC(=O)NCc1cccnc1)CC(C)O2 (centres undefined)	·	·	·	2.2	-0.2
O=[N+]([O-])C1=CC=C2C(=NC3(CCCCC3)N2O)C1=NCCc1ccccc1	·	-7.1%	1.0	·	2.0
CC(C)=CCN1CCN(Cc2cccc3nccnc23)CC1CCO (centres undefined)	·	5.4%	-5.2	-2.9	-0.7

Grouped by structure: the compounds so far containing four or more nitrogen atoms.
SMILES	YopH PTP inh	Mtb growth	Arbovirus anti	Mtb bLac sens	RecA splice inh	others
Cn1nnc(NC(=O)COc2ccc(C3CCCCC3)cc2)n1	8.6	·	14.4	99.2	-1.6
CC1CCc2c(sc3nc(C4CC4)nc(N4CCN(C(=O)c5ccco5)CC4)c23)C1 (centres undefined)	0.3	?	·	90.6	29.3
CCn1nc(C)c(CNC(=O)Nc2ccccc2C(=O)OC)c1C	·	-1.7%	-7.0	1.6	-1.6
COC(=O)c1ccc(CO/N=C(\NC(C)=O)c2nonc2NC(C)=O)cc1	-24.6	-3.3%	-8.7	3.0	3.2
O=[N+]([O-])C1=CC=C2C(=NC3(CCCCC3)N2O)C1=NCCc1ccccc1	·	-7.1%	1.0	·	2.0
CC(C)=CCN1CCN(Cc2cccc3nccnc23)CC1CCO (centres undefined)	·	5.4%	-5.2	-2.9	-0.7

Remaining list, next part
SMILES	YopH PTP inh	Mtb growth	Arbovirus anti	Mtb bLac sens	RecA splice inh	others
S=C(NCC1CCCCC1)Nc1ccc(Oc2ccccc2)cc1	-28.2	69.2%	-37.8	53.8	10.6
CC(C)C(C)(NC(=O)c1cccn(Cc2ccc3c(c2)OC(F)(F)O3)c1=O)C(N)=O (centres undefined)	·	7.1%	8.2	3.5	-1.2
COc1cccc(N2CCN(c3c4c(nc5ncnn35)CCC4)CC2)c1	1.9	·	4.2	-5.2	1.6	Arbovirus anti repeat=6.0
COc1ccc(/C=N/NC(=O)CN2CCCCCCC2)c(C)c1C	·	-0.6%	·	-5.2	-1.4
CCC(C)NS(=O)(=O)c1ccc(S(=O)(=O)N2CC=C(c3ccc(F)cc3)CC2)cc1 (centres undefined)	-19.2	5.8%	8.1	9.2	1.1
COc1ccc(N(CC(=O)N2CCN(Cc3ccccc3)CC2)S(=O)(=O)c2ccccc2)cc1	·	·	·	0.6	-0.9
O=C(N/N=C/c1ccc2nccnc2c1)c1ccncc1	·	?	·	97.9	-0.3
C#CCN(Cc1ccco1)C(=O)c1cc(COc2ccc(F)cc2Cl)on1	·	4.3%	5.3	6.7	13.9
O=C1NC(=NCc2ccccc2)S/C1=C/c1ccc(O)cc1	-30.1	14.2%	-17.3	4.7	-0.8
Cc1ccc2nsnc2c1NC(=O)CCl	·	1.4%	11.9	81.9	-0.2
Cn1cccc1/C=N/N1CCN(Cc2ccc(Cl)cc2)CC1	·	-6.6%	·	-3.4	-2.1
COC(=O)C(C(=O)OC)N1C(=O)CCC1=O	-9.3	-1.1%	3.2	-4.9	0.6
O=C(O)c1ccc(N2CCS(=O)(=O)CC2)cc1	·	1.5%	4.5	-6.6	-1.2
COC(=O)c1cc(S(=O)(=O)Nc2cccc(S(N)(=O)=O)c2)oc1C	·	-8.5%	·	0.7	-0.3
O=Cc1c(Sc2ccccc2)nc2ccccn2c1=O	-3.0	2.0%	-23.4	17.0	-6.3
CCOC(=O)C[C@H]1c2cc(F)ccc2S(=O)(=O)N1C1CCCCC1	·	0.5%	·	0.1	-0.5
CCOC(=O)Nc1ccc([N+](=O)[O-])cc1C	-12.3	-8.9%	0.3	-0.1	6.0
CC1Cc2cc(S(=O)(=O)NCc3ccccc3)ccc2N1C(=O)C1CCC1 (centres undefined)	·	·	·	-2.0	-1.5
O=C1c2ccccc2NC(c2ccc(-c3cccc(Cl)c3)o2)N1O (centres undefined)	-8.1	8.5%	-30.6	-2.2	6.0
O=C(CSc1nnnn1C1CCCCC1)NNC(=O)c1ccco1	·	-4.7%	0.1	-0.5	2.0
COc1ccc(C(C)=O)cc1COC(=O)c1ccc(S(=O)(=O)N2CCOCC2)cc1	-30.7	-4.3%	3.0	-1.7	0.1
CCn1nnc(-c2ccccc2NC(=O)C(F)(F)F)n1	-42.2	-8.8%	2.0	-3.5	-1.1
CCOc1ccc(/C=C/C(=O)OCC(=O)NCCc2ccc(OCC)c(OCC)c2)cc1OC	·	·	·	-5.1	-0.6
Cc1cccc(NC(=O)CSCC(=O)Nc2cc(Cl)ccc2N2CCOCC2)c1	·	·	·	7.1	-0.8
O=C(NC1CCCCCC1)c1cc(S(=O)(=O)N2CCC3(CC2)OCCO3)ccc1F	26.3	-6.5%	6.5	-5.2	-1.6

Other entries follow:
SMILES	YopH PTP inh	Mtb growth	Arbovirus anti	Mtb bLac sens	RecA splice inh	others
COCC(C)n1c(C)cc(C(=O)COC(=O)CCc2nc3ccccc3c(=O)[nH]2)c1C (centres undefined)	·	7.1%	3.0	-3.9	-0.8
CC(=O)c1ccc(-n2nnnc2SCC(=O)NC2CCCCC2)cc1	·	·	·	-4.0	-2.2
Cc1ccc(OCC(=O)N2CCN(C(=O)c3ccncc3)CC2)cc1	·	-1.9%	-6.7	-1.6	-1.8
c1cc2c(cn1)cnc1cscc12	-23.4	-1.5%	20.4	5.1	-4.1
O=C(CCNS(=O)(=O)c1cccc2nsnc12)NC1CCN(Cc2ccccc2)CC1	-32.6	6.7%	-1.6	?	-1.3	Arbovirus anti repeat=2.9
COc1ccc2[nH]c3nc(SCC(=O)NC4CC4)nnc3c2c1	·	·	·	-3.7	2.7
Cc1[nH]n(-c2ncc(-c3ccccc3)s2)c(=O)c1C(c1ccc(Br)cc1)C(C#N)C#N (centres undefined)	-52.8	12.0%	-5.6	7.8	6.5
O=C(Nc1ccc(OC(=O)c2cccnc2)cc1)c1cccnc1	-54.2	-2.6%	-7.9	-5.4	1.3
COc1ccccc1Nc1nc(NCCO)nc(N)c1[N+](=O)[O-]	·	0.5%	·	-6.9	-4.4
Cc1ccc(NC(=O)CCCC(=O)OC(C)C(=O)c2ccccc2)cc1 (centres undefined)	·	·	·	-3.5	0.4
COc1ccccc1/C=C1/C(=O)N(c2cc(C)cc(C)c2)C(c2cccc([N+](=O)[O-])c2)S1(=O)=O (centres undefined)	-20.6	-3.8%	-1.9	-0.1	-2.9
COc1ccccc1-n1cccc1C=O	·	-2.4%	0.7	1.1	-1.4
O=C(CCNC(=O)C1CCN(S(=O)(=O)c2ccccc2)CC1)NCCc1cccc(F)c1	·	·	·	-1.6	-2.5
O=C(Nc1ccc(C(=O)Oc2ccccc2)c(O)c1)c1ccccc1	·	?	19.6	98.8	2.8
CC(C)S(=O)(=O)C1=NSC2=NC(=O)/C(=C\c3ccc(-c4ccccc4)o3)C(=N)N21	-24.4	-2.5%	33.1*	-4.3	-47.7
Cc1cccc(NC(=O)CCNS(=O)(=O)c2ccc3[nH]c(=O)oc3c2)c1	·	·	·	-7.8	-5.5
CCCc1cc(C(=O)Nc2ccc(C)cc2)no1	-44.5	10.4%	-8.8	1.7	2.1	Arbovirus anti repeat=-1.9
O=C(CCSCCC(=O)Nc1c(F)c(F)c(F)c(F)c1F)Nc1c(F)c(F)c(F)c(F)c1F	·	3.1%	8.7	3.8	-1.6
O=C(NCCCCCCCCCNC(=O)C(F)(F)F)C(F)(F)F	39.8	15.5%	4.2	3.2	1.4
CCn1c(SCc2ccc(F)cc2)nc2c(c1=O)SCC2	·	12.6%	21.9	0.0	4.8
COc1ccc(N(C)C(=O)Nc2ccc3nsnc3c2)cc1	·	59.7%	7.5	·	3.8
Cc1oc(-c2ccccc2Cl)nc1CS(=O)CC(=O)N1CCN(c2ccccc2)CC1 (centres undefined)	·	·	·	-5.3	-4.2
CCCC(=O)NC(=S)Nc1cccc(NC(=O)c2ccccc2)c1	·	-2.7%	-2.9	-12.7	6.3
Cn1c(N)c(C(=O)Nc2c(Cl)cccc2Cl)sc1=S	·	-2.6%	·	-2.9	-3.2
Cc1c(Nc2c3ccccc3nc3ccccc23)c(=O)n(-c2ccccc2)n1C	·	-4.7%	·	-0.9	-46.0

Other entries.
SMILES	YopH PTP inh	Mtb growth	Arbovirus anti	Mtb bLac sens	RecA splice inh	others
O=C(CNC(=O)c1ccc(Cl)cc1)OCC(=O)N1CCCC1	·	4.0%	7.2	5.9	-1.6
CC1(C)CC(=O)C(/C=N/c2ccccn2)=C(O)C1	-9.6	-15.5%	2.1	-0.5	-2.1
Cc1ccc(Cl)cc1NC(=O)COC(=O)Cn1cnc2c1c(=O)n(C)c(=O)n2C	·	-4.1%	-0.2	5.0	-1.1
CCOC(=O)C1=NN(c2ccc(C)cc2)CC1C(=O)OC (centres undefined)	-27.7	5.0%	1.8	2.6	-8.7
COc1ccc(C2=NS(=O)(=O)N(C)C(C(=O)N3CCN(C)CC3)=C2)cc1	·	·	·	-0.3	-8.6
COc1ccc(CCN(C)C(=O)N2CCOCC2)cc1OC	-38.4	-6.1%	2.6	-11.8	-1.4
COc1ccc(CC(=O)NCCC2=CCCCC2)cc1	·	2.4%	-4.3	5.5	-1.4
Cc1cc(C)c2c(=O)[nH]c(SCC(=O)NCCc3ccccc3)nc2n1	-27.2	-3.0%	3.7	0.6	0.0
CC1Cc2ccccc2N1CC(=O)NC(=O)NC1CCCC1 (centres undefined)	·	8.8%	4.6	-6.0	-3.0
Cc1ccsc1-c1nc(CN2C[C@@H](C)O[C@@H](C)C2)c(C)o1	·	0.8%	-0.4	-3.1	-1.2
Cc1oc(C(C)(C)C)cc1C(=O)Nc1ccc2c(c1)OCCO2	-7.9	·	2.5	94.1	-6.4
CSc1nc2sc3c(c2c(=O)n1C1CCCCC1)CCN(C)C3	-10.6	-2.3%	5.2	-5.3	0.8

Source: PubChem BioAssay

A portion of the library; count on the stated rates, not on these rows.
